TRPML1 blocker = human mucolipin-1 channel inhibition | Q9GZU1 | activity change, negative = inhibition, % (test concentration not listed) | actives 0.02% (n = 390,000) | TRPML1-inducible cells, Ca2+ dye fluorescence, FDSS; stronger effect = lower value; inhibition of EC80 agonist-evoked calcium signal; in the data active means activity change below about -50%; inconclusive means about -30% to -50%; inactive means above about -30%;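 note: stimulus is agonist 54-4 at its EC80 concentration; % is set by controls: 0 for no effect and ±100 for the full control effect; compound concentration not given in the record; the text of the record puts the active cut at -80%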
Target sequence (Q9GZU1 whole entry, looked up): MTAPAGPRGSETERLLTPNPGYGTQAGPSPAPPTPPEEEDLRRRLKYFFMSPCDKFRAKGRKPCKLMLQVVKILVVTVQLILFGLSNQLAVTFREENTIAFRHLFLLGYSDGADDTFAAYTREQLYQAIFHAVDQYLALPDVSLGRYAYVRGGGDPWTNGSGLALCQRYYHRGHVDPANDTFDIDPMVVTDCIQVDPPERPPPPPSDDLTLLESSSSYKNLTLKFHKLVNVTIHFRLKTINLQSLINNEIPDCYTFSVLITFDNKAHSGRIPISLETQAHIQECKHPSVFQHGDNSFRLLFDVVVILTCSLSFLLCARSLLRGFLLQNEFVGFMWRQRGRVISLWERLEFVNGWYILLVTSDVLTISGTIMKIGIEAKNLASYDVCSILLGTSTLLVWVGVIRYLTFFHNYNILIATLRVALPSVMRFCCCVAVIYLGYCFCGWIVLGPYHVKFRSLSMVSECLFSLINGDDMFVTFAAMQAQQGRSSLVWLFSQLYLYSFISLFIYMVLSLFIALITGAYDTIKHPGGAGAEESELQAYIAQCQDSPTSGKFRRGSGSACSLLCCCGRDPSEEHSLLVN
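Calcium fluorescence in TRPML1-DL cells induced overnight with Tet: a 110 s read after compound pin addition, then a 110 s antagonist read after challenge with 54-4 at 4 uM final (EC80).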
gsp agonist = activates gsp, the McCune-Albright syndrome mutation; gsp mutant cells, cAMP HTRF, 30 min; control for the full effect not named in the record; Potency, µM (highest dose often 76.9 µM), for the others: at the top dose activation (cAMP increase), usual class: activators; actives 0.13% (n = 340,000); AID 624287; active = well fitted activation curve with a large enough effect; inconclusive = small, poorly fitted or top-dose-only effect, or another doubt; inactive = no such curve, though single readings can be large or run the other way; cell line not stated here;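 note: phosphodiesterase inhibitor Ro 20-1724 added with compounds to block cAMP breakdown; potency is the fitted concentration of half-maximal effect; nearly all actives have a fitted effect of over 60% in size; about a fifth of the inactives were tested at one dose only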
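Cells in DMEM/10% FBS with G418 were pretreated with compounds in DMSO plus […] (300 uM stock) for 30 min at 37C. cAMP was measured by HTRF (cAMP-d2 plus anti-cAMP antibody-K) after 30 min at room temperature.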
Menin-MLL FL inh = displaces fluorescein MLL peptide from human menin. Fluorescence polarization, fluorescein-MLL peptide displacement from menin. FP activity change, % at 61.4 µM. 290,000 tested, under 10 active. AID 1766; inconclusive = falling polarisation curve, or a change in total fluorescence; inactive = total fluorescence flat and polarisation flat or rising; no compound was filed as active; the % refers to the polarisation; negative = inhibition;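 note: % of control where 0% means no effect; inhibitors lower the polarisation; unlabelled MLL peptide was the positive control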
ClpP mod = qHTS Assay for Activators of ClpP; ATP-dependent Clp protease proteolytic subunit (Bacillus subtilis (strain 168)), P80244; purified B. subtilis ClpP, FRET peptide cleavage, 20 min; Potency, µM (top dose mostly 57.5 µM), for inactives: top-dose activity change, negative = active; actives 1.9% (n = 340,000); AID 651965, 2013; active = well fitted falling curve with a large enough effect; inconclusive = small, poorly fitted or top-dose-only effect; inactive = no such curve, though single readings can be large or run the other way; note: potency is the fitted concentration of half-maximal effect; the source files actives as falling curves though it sought activators and does not explain the sign; nearly all actives have a fitted effect of over 65% in size; many hits overshoot -100%
Target sequence (P80244 whole entry, looked up): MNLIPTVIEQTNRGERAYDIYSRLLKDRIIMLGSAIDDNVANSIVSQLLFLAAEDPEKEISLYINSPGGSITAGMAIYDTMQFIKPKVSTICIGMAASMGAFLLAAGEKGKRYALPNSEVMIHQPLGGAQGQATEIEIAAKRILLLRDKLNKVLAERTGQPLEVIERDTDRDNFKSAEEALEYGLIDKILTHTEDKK
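ClpP 10 microg/mL final, pH 8 Tris/KCl buffer with BSA, glycerol, Tween-20; compound pinned in; FRET-FV substrate; RT 20 min; Ex320/Em430; ΔFRET vs ADEP 5.8 microM, DMSO, no enzyme.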
Sfp inh = inhibitors of Bacillus subtilis Sfp phosphopantetheinyl transferase | Biochemical Sfp PPTase activity, qHTS | Potency, µM, without a hit: max response, negative = inhibition, actives largely listed as inhibitors | actives 3.5% (n = 310,000) | AID 1490; active = well fitted inhibition curve with a large enough effect; inconclusive = small, poorly fitted or top-dose-only effect, or another doubt; inactive = no such curve, though single readings can be large or run the other way;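 note: the enzyme is Sfp with the accession as filed and its product quenches rhodamine fluorescence; potency is the fitted concentration of half-maximal effect; 0% = enzyme reaction without inhibitor and -100% = no enzyme wells; top concentration of the series not given in the record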
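Step 1, compound plus 15 nM Sfp-PPTase, 15 min, room temperature. Step 2, add rhodamine-CoA (5 uM) and BHQ-2-YbbR (12.5 uM). Step 3, read 525/598 nm fluorescence at 0 and 30 min.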
gsp antagonist = gsp mutant antagonism | actives 0.4% (n = 340,000) | gsp-mutant cells, cAMP HTRF, 30 min; control for the full effect not named in the record | Potency, µM (titrated, usually from 76.9 µM), inactives show at the top dose activity change, negative = inhibition, hits mostly inhibitors; active = falling curve of any shape with a large fitted effect; inconclusive = falling curve, mostly with a smaller effect; inactive = flat or rising curve; cell line not stated here;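 note: intracellular cAMP measured with PDE inhibitor Ro 20-1724 present during compound exposure; potency is the fitted concentration of half-maximal effect; % is set by controls: 0 for no effect and ±100 for the full control effect; nearly all actives have a fitted effect of over 65% in size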
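HTRF cAMP measurement after 30 min RT detection following 30 min, 37C compound treatment alongside […] (added as 300 uM solution) in G418-selected cells seeded at 2000/well and grown 16–24 h.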
TRPV1 PAM = human TRPV1 potentiation | actives 0.02% (n = 320,000) | AID 540277 | Q8NER1 | TRPV1-expressing cells, Fluo-8 calcium influx, capsaicin EC20 potentiation; host cell line not named in the record; control for the full effect not named in the record | potentiation, % at 8.33 µM; active means potentiation above 80%; inconclusive means 30% to 80%; inactive means below 30%; note: 0% is about no effect
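Cells expressing TRPV1 were dye-loaded with Fluo-8 and read kinetically: 10 s baseline, 3 min after compound (agonist portion), then 2 min after EC20 capsaicin (allosteric enhancer portion). Calcium-bound dye fluorescence at 480/520 nm.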
The depositor's hits bear a star; ? = inconclusive; · = no result given; [ ] = remark or other dose.

SMILES	TRPML1 blocker	gsp agonist	Menin-MLL FL inh	ClpP mod	Sfp inh	gsp antagonist	TRPV1 PAM
CCOc1ccccc1OCC(=O)Nc1ccc(S(=O)(=O)Nc2ncccn2)cc1	-17	-45%[inhibitor]	-1.7	-1.7%	-12%	-12%	19
O=C(Nc1cccc(-c2cn3c(n2)SCC3)c1)c1ccc2c(c1)OCO2	11	1%[15.4 µM]	2.5	-4.8%	15%	-23%	2
CC(=O)C1=C(O)C(=O)N(Cc2ccccc2)C1c1ccco1 (configuration not stated)	2	?	10	0.3%	-5%	-5%	7
CCC1(c2ccccc2)NC(=O)N(CC(=O)N2CC(=O)Nc3ccccc32)C1=O (configuration not stated)	-16	15%	·	-20%	·	1%	12
CCn1c(SCC(=O)Nc2ccccc2OC)nnc1-c1cnccn1	6	6%	-0.4	-3.8%	8%	-2%	?
COc1ccc(/C=N/NC(=O)c2ccc(N3CCCC3=O)cc2)cc1	-1	-4%	·	·	7%	1%	8
COc1ccc(S(=O)(=O)N2CCC(C(=O)NC3CCCC3)CC2)cc1C	7	-20%	1.8	·	15%	6%	7
CCOc1ccc(CCNC(=O)COC(=O)c2oc3ccccc3c2COC)cc1OCC	-4	?	·	-3.9%	·	-7%	8
CCCCCNCc1ccc(OCc2ccc(Cl)nc2)c(OC)c1	17	21%	8.3	-1.1%	-1%	5%	-5
COc1ccc(NC(=O)CSc2nnc(Cn3nnc4ccccc43)n2C)cc1	35	?	-2.0	1.0%	9%	-8%	4
Nc1ccc2c(O)cc(S(=O)(=O)O)cc2c1	8	?	·	·	·	-1%	·
Clc1cc2c(cc1/C=N/Nc1nc(N3CCOCC3)nc(N3CCOCC3)n1)OCO2	-16	-5%	4.2	·	-9%	-15%	-5
O=S(=O)(c1ccccc1)c1nc(-c2ccco2)oc1N1CCCCC1	10	-8%[15.4 µM]	1.9	·	8%	-18%	0
c1ccc(N2CCOCC2)c(Nc2nc3ccccc3n3cnnc23)c1	25	25%	11	-8.5%	?	-15%	24
Cc1ccc2[nH]c(=O)c(CN(CC3CCCO3)C(=O)c3cccs3)cc2c1 (configuration not stated)	4	-1%	1.2	·	8%	-11%	?
COc1ccc(C2=NN(C(=O)c3ccccc3C(=O)O)C(c3ccccc3O)C2)cc1 (configuration not stated)	-5	-3%[15.4 µM]	5.6	·	7%	1%	3
O=C1Cc2ccccc2C(=O)N1c1ccccc1	14	-2%[15.4 µM]	-0.7	·	9%	-13%	5
C=CCSc1nc2nc(C)cc(C)n2n1	-9	-23%	-0.8	?	16%	2%	0
Nn1cnnc1N/N=C/c1cc(Br)cc(Br)c1O	-6	?	?	-6.5%	10%	12%	-4
O=C(CN1CCN(c2cccc(Cl)c2)CC1)N1CCCC1	-15	4%	1.9	0.1%	8%	-10%	-7
O=C(NNS(=O)(=O)c1ccc([N+](=O)[O-])cc1)C1CCCCC1	10	15%	·	-0.4%	5%	9%	11
CC(c1ccccc1)N1C(=O)c2ccc(C(=O)Nc3ccc(Br)cc3C(=O)O)cc2C1=O (configuration not stated)	-6	9%	·	-0.3%	24%	35µM*	1
NC(=Nc1ccc(Br)cc1)c1ccccc1	-14	-18%	4.0	0.7%	10%	6%	-16
COc1ccc(CN=Cc2[nH]c3ccc(Br)c(Cl)c3c2O)cc1	12	?	?	-4.1%	-17%	10%	-5
Cc1ccc(S(=O)(=O)NC2(C(=O)O)CCCCC2)cc1	11	-39%[inhibitor]	-0.7	0.0%	24%	6%	-18

Following part
SMILES	TRPML1 blocker	gsp agonist	Menin-MLL FL inh	ClpP mod	Sfp inh	gsp antagonist	TRPV1 PAM
Cc1nn(Cc2noc(C(=O)NC3CCC(C)CC3)n2)c(C)c1Br (configuration not stated)	23	13%	-0.3	-0.5%	-6%	-6%	-10
Cc1ccc(S(=O)(=O)N[C@H](C(=O)N2CCC(C(=O)N[C@@H](CC(=O)O)C(=O)O)CC2)C(C)C)cc1	·	·	5.6	1.2%	13%	7%	6
CC1(C)CC(=O)C2=C(C1)NC(Nc1nc3ccccc3o1)=NC21CCCC1	-4	-14%	1.7	-4.8%	13%	14%	6
CCOC(=O)c1cnc(Nc2ccc(OCC)cc2)nc1C	6	18%	4.5	-2.4%	12%	7%	28
COc1ccc(O)c(C=NCC(C)N=Cc2cc(OC)ccc2O)c1 (configuration not stated)	0	26%	10	·	-3%	4%	11
C/C(=N/NC(=O)c1ccc(Br)s1)c1ccncc1	13	-4%	·	-0.8%	10%	9%	-27
O=C(O)c1cccc2c(/C=N/Nc3ccccn3)c[nH]c12	0	-8%	2.6	-1.1%	50µM*	7%	-20
Cc1cc(N2C(=O)Cc3ccccc3C2=O)ccc1C(C)C	18	-9%[15.4 µM]	-1.0	-2.2%	0%	-13%	0
CN(CCC1CCOCC1)C(=O)CC1C(=O)NCCN1C/C=C/c1ccccc1 (configuration not stated)	-4	-24%	2.4	0.9%	7%	12%	-6
O=C(NCc1cccnc1)NC1(C(F)(F)F)Oc2ccccc2O1	4	2%	-1.8	-2.5%	-5%	1%	8
Cc1cccc(OCC(=O)N2CCC(N3CCOCC3)CC2)c1	8	-5%	-0.2	0.4%	?	10%	?
CSc1nc(N)c2c3c(sc2n1)CN(C)CC3	-6	6%	-0.6	4.2%	11%	-6%	-17
Cc1ccc2c(c1)S/C(=C/c1ccc[n+](C)c1)N2CCO	8	1%	17	-0.2%	-7%	-19%	-37
CCOc1cccc(CN2CCCC(CCC(=O)NCc3ccccc3F)C2)c1O (configuration not stated)	-2	5%[15.4 µM]	-6.4	·	7%	·	-5
CC(=O)OC1CC(C)N(C(=O)c2ccccc2)c2ccc(C)cc21 (configuration not stated)	-1	-42%	-0.4	-0.8%	3%	-1%	-1
CCCc1cc(C(=O)NNC(=S)NC(C)c2ccccc2)cs1 (configuration not stated)	17	1%	-3.9	1.0%	10%	-1%	?
COc1ccc(NS(=O)(=O)c2cc(NC(=O)c3ccc(C)o3)ccc2N2CCCCC2)cc1	62	5%	-0.7	-10%	6%	-15%	5
Cc1cccc(OCC(=O)NC(=S)N2CCCc3ccccc32)c1	-2	6%	-8.1	-0.8%	79µM*	-13%	-13
Cc1c(Cc2ccccc2)c(=O)oc2cc(OCC(=O)NCC3CCC(C(=O)O)CC3)ccc12 (configuration not stated)	·	·	-7.1	4.3%	0%	-19%	0
Cc1ccc(Oc2nc3c(C)cccn3c(=O)c2/C=C(\C#N)C(N)=O)cc1	-8	-1%[15.4 µM]	1.5	1.0%	16%	-24%	3
O=C(Nc1cccc(-c2nc3ccccc3[nH]2)c1)c1cccc(NC(=O)c2ccco2)c1	0	-15%	3.7	?	?	-4%	-11
CC12CCC(=O)N1c1c(sc3nc(N4CCOCC4)c4c(c13)CCCC4)C(=O)N2 (configuration not stated)	0	0%	1.7	25µM*	?	6%	-11
O=C(Nc1nc2c(s1)CCCC2)c1cc(-c2ccc3c(c2)OCO3)nc2ccccc12	·	·	7.4	·	?	·	?
CCOC(=O)C1=C(C)NC(=O)NC1C (configuration not stated)	-5	10%	3.0	0.0%	16%	4%	-4
CCN(CC)CCC(=O)NN	-8	-56%[inhibitor]	-0.6	1.6%	-2%	9%	9

Some entries already given, limited to TRPV1 PAM and gsp agonist.
SMILES | TRPV1 PAM | gsp agonist
CC12CCC(=O)N1c1c(sc3nc(N4CCOCC4)c4c(c13)CCCC4)C(=O)N2 (configuration not stated) | -11 | 0%
Cc1ccc(Oc2nc3c(C)cccn3c(=O)c2/C=C(\C#N)C(N)=O)cc1 | 3 | -1%[15.4 µM]
O=C(Nc1nc2c(s1)CCCC2)c1cc(-c2ccc3c(c2)OCO3)nc2ccccc12 | ? | ·
Cc1nn(Cc2noc(C(=O)NC3CCC(C)CC3)n2)c(C)c1Br (configuration not stated) | -10 | 13%

Other entries.
SMILES	TRPML1 blocker	gsp agonist	Menin-MLL FL inh	ClpP mod	Sfp inh	gsp antagonist	TRPV1 PAM
O=C(Nc1nnc(COc2ccc(Cl)cc2)s1)c1ccco1	38	-5%[15.4 µM]	-1.7	1.4%	7.1µM*	-4%	-14
CSc1ccccc1OCc1cc(C(=O)N2CCN(Cc3nccn3C)CC2)no1	-6	?	·	-2.3%	6%	0%	-4
Cc1cccn2cc(CNC(=O)C3CCCCC3)nc12	-9	16%	-0.9	?	15%	-1%	-2
COC(=O)c1sccc1NC(=O)c1ccccc1Br	51	0%	·	-2.9%	·	-14%	·
COC(=O)c1c(C)[nH]c(C(=O)OCC(=O)c2c(N)n(CC(C)C)c(=O)n(C)c2=O)c1C	7	8%	·	·	·	?	·
CCCC(=O)Nc1cc(Cl)ccc1N1CCN(C(=O)CC)CC1	9	-17%	2.1	-0.5%	13%	-10%	-4
CC(C)(C)OC(=O)NCCCCCNC(=O)c1nc[nH]c1C(=O)N1CCN(c2ccccc2)CC1	3	·	·	1.4%	·	-11%	·
C[n+]1cc(-c2ccccc2)n2c1CCCCC2	40	5%	-1.5	-1.7%	10%	10%	2
CC(Oc1ccc2oc(-c3ccccc3)c(C(=O)O)c2c1)C(=O)O (configuration not stated)	-6	?	0.6	-6.7%	-17%	10%	17
O=C(c1ccco1)N1CCN(Cc2nc3cc(Cl)ccc3c(=O)[nH]2)CC1	1	5%[15.4 µM]	16	-0.9%	7%	2%	-4
CCOC(=O)c1ccc(NC(=O)Nc2nncs2)cc1	-9	16%	·	0.5%	·	·	·
COCCn1c(-c2ccccc2)nc(=S)c2c1CC(C)(C)OC2	0	1%	0.4	-2.3%	-8%	1%	16
CN(C)S(=O)(=O)c1cccc(NC(=O)c2cccc(N3C(=O)CCC3=O)c2)c1	6	-15%	·	1.0%	·	17%	4
CC(C)N1C(=O)CCC1C(=O)N1CCCc2ccccc21 (configuration not stated)	-11	19%	1.0	-3.9%	27%	-4%	-2
CCn1c2ccccc2c2cc(NC(=O)COC(=O)c3cc(S(N)(=O)=O)c(Cl)cc3Cl)ccc21	3	11%[15.4 µM]	1.1	·	-10%	-11%	0
Cc1sc(NC(=O)CN(CCc2ccccc2)C(=O)C2CC2)c(C(N)=O)c1C	8	-2%	0.6	·	13%	-16%	9
CCOc1ccc(OCC(=O)c2c(O)c3ccccc3oc2=O)cc1	-6	10%	3.2	?	28µM*	?	15
